Beta2AR agonist: human beta-2 adrenergic receptor agonism by FAP. AID 504454. Am2.2-beta2AR cells, FAP receptor internalization, flow cytometry; reference of the scale not given here. hit rate 0.43% among 340,000. response, % (no concentration beside the values). P07550;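 active means response above a set limit, near 3 SD of response in nonfluorescent compounds, cut at about 42% in these data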;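 further: stock transfer was 100 nL into about 11 µL; a reference agonist was the positive control; negative values mostly stem from fluorescent compounds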
Target sequence (P07550 whole entry, looked up): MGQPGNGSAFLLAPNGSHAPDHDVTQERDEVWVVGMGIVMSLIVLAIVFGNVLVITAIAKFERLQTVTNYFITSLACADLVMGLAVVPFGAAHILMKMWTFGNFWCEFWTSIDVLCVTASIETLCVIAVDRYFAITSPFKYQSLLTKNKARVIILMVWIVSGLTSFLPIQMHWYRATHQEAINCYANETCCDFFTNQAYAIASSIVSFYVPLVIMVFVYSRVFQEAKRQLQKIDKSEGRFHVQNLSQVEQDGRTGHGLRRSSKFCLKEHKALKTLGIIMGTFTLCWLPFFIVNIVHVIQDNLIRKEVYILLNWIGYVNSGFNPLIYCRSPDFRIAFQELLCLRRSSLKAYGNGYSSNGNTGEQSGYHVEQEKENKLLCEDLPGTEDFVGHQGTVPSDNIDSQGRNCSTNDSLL
RanGTP-Imp inh: disruptors of Ran-importin-beta complex formation – biochemical, FRET, CFP-Ran, YFP-importin-beta, homogeneous, primary screen | cell-free CFP-Ran/YFP-importin-beta FRET ratio | hit rate 1.1% among 300,000 | inhibition, % (test concentration not listed) | AID 2216;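 active means most replicates above 15%; inconclusive means exactly half above 15%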;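 further: 0% = DMSO wells and 100% = Ran loaded with GDP instead of GTP; wells of about 40 µL received 100 nL stock; the first replicate is given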
UCH37 DUB inh: human UCH37 deubiquitinating enzyme inhibition | Q9Y5K5 | inhibition, % (concentration not given with the values) | purified proteasome/UCH37, Ub-AMC cleavage fluorescence | hit rate 0.33% among 330,000;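 active means mean of two replicates above 20%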;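 further: 0% = compound-free wells with enzyme and 100% = wells lacking proteasome; stock transfer was 100 nL into about 20 µL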
Target sequence (Q9Y5K5 whole entry, looked up): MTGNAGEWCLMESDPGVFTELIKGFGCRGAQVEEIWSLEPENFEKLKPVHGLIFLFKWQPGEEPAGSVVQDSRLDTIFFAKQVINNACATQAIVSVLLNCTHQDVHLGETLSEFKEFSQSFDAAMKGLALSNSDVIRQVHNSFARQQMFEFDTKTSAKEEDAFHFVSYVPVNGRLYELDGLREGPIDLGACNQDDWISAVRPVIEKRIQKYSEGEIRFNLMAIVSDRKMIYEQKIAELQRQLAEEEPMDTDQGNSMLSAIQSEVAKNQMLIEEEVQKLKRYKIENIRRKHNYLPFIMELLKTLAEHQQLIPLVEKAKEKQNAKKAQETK
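Material: Human UCH37 enzyme supplied as purified proteasome complex | Schedule: 30 min preincubation with enzyme, 25 min cleavage at room temperature | Detection: AMC fluorescence 355/460 nm | Measure: % inhibition of Ub-AMC cleavage fluorescence | Controls: Wells without proteasome as full block, compound-free enzyme plus substrate as uninhibited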
Bfl-1 A1 inh: inhibitors of the anti-apoptotic protein A1, read as caspase activation. hit rate 0.066% among 330,000. MEF A1-2A-BIM cells, Caspase-Glo 3/7 luminescence, 3 h; percent of clofoctol response, vehicle zero. caspase activation, % (concentration not given with the values). AID 2462;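 active means over half of replicate activation scores above 10%, or exactly half above 10 with the replicate mean above 10; inconclusive means replicate mean below 10 yet half the replicates above 10; inactive means over half of replicates below 10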;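 further: wells of about 30 µL received 50 nL stock; many hits fall short of the cut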
T cruzi repl: blocks replication of Trypanosoma cruzi; T. cruzi beta-gal in NIH3T3, luminescence, 90 h; inhibition, % (concentration not given with the values); hit rate 1.4% among 300,000;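 active means mean inhibition across valid replicates above about 55%, limit read from the data; inconclusive means mean below that limit but half or more replicates reach it; inactive means mean below it, under half of replicates reach it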;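 further: signal also drops with host cell toxicity which is not excluded here; 0% = plate median of DMSO wells and 100% = zero luminescence signal; higher percent means less beta-gal luminescence so fewer parasites; stock transfer was 50 nL into about 50 µL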
LANA-H2B inh: blocks KSHV LANA binding to histone H2A/H2B | Q9QR71 | cell-free LANA-H2A/H2B peptide, fluorescence polarization | inhibition, % (no concentration beside the values) | hit rate 0.6% among 320,000 | AID 2629; in the data active means inhibition mostly above about 10%, no sharp cut-off; inactive means mostly below about 6.7%;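 further: stock transfer was 7.5 nL into about 10 µL; 0% = median of vehicle wells and 100% = median of positive control wells; one replicate is shown; the record names a cut of 25% in any replicate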
Calb FLC: affects C. albicans growth with fluconazole. AID 1979. hit rate 0.57% among 300,000. C. albicans CaCi-2 (fluconazole-resistant clinical isolate) + fluconazole, Alamar Blue growth, 48 h. growth inhibition, % (test concentration not listed);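 active means most replicates above 75%; inconclusive means exactly half above 75%; inactive means most below 75%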;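 further: all wells also contain fluconazole at 8 µg/ml as a sub-toxic cotreatment; 0% = median of DMSO wells and 100% = median of geldanamycin control wells; wells of about 8 µL received 7.5 nL stock; the first replicate is given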
Beta cell apopt: beta cell apoptosis inhibition. INS-1E cytokine-induced death, ATP luminescence, 48 h; percent of positive-control rescue, neutral wells zero. protection from apoptosis, % (test concentration not listed). hit rate 0.8% among 300,000;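 active means all replicates at 75% or more, or half of them and the mean; inconclusive means half reach 75% but not the mean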;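 further: 0% = cytokine-treated negative control wells and 100% = positive control rescue; higher means more ATP so stronger rescue from cytokine killing; wells of about 40 µL received 100 nL stock; the first replicate is given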
Numbers without * were called inactive; u = inconclusive; x = not tested or not shown. Outcome played no part in choosing rows; 4.3% or so of the library scored in one or more.

SMILES	Beta2AR agonist	RanGTP-Imp inh	UCH37 DUB inh	Bfl-1 A1 inh	T cruzi repl	LANA-H2B inh	Calb FLC	Beta cell apopt
Cc1ccc(-n2nc3cc(C)c(NC(=S)NC(=O)/C=C/c4ccco4)cc3n2)cc1	-5	0.5	10	-2.3	-14	0.3	11	-3
COc1cccc(C=Nc2ccccc2C(=O)Nc2nccs2)c1OC	-2	10	-175	-1.2	-3	-0.8	2	5
Brc1ccccc1C1N=C(c2ccccc2)NO1 (stereo not given)	-11	4.5	2.8	-3.3	12	-7.2	2	x
O=C(Nc1ccc(F)cc1)c1ccc2c(c1)S(=O)(=O)N=C1CCCCCN12	-12	x	-3.2	0.8	x	x	x	1
COc1ccccc1CNC(=O)C(C)Oc1ccccc1 (stereo not given)	2	1.7	4.1	0.3	7	1.8	-7	-7
COC(=O)CCC(=O)c1oc2ccccc2c1NC(=O)CCCN1C(=O)c2ccccc2C1=O	2	u	4.9	0.6	-8	0.4	2	2
O=C(NC1CCCc2ccccc21)C1CCC(CNS(=O)(=O)c2cccc3nsnc23)CC1 (stereo not given)	7	u	2.8	-0.3	9	6.6	-3	-18
CCCCCCCc1ccc(-c2ccc(O)cc2)nc1	4	-0.7	0.4	-1.0	41	3.1	-15	-2
COc1ccc(C(=O)NC2CCN(C(=S)Nc3cccc(C)c3)CC2)cc1	7	8.1	4.4	1.8	-11	-4.9	-9	8
COc1ccc(/C=C2\CCCC3C2=NN(C(=O)c2scnc2C)C3c2ccc(OC)cc2)cc1 (stereo not given)	23	5.1	-98	0.1	36	0.9	5	1
Cc1cccc2c1cnn2C(=O)Nc1ccc(Br)cc1F	3	2.5	4.3	-0.1	3	4.8	-15	-8
CC(C)Cc1nnc(NC(=O)CSc2nc(-c3ccccc3)cc(=O)[nH]2)s1	-1	2.2	0.9	-0.1	-16	-2.3	42	-2
Fc1ccc(F)c(CNc2ncnc3cc(Cl)ccc23)c1	5	0.8	2.6	0.1	-5	0.4	7	12
C=CCn1c(=N)n(CC(O)c2ccco2)c2ccccc21 (stereo not given)	5	1.1	-0.7	0.0	4	-2.5	-3	-3
O=C(Nc1cc(C(F)(F)F)ccc1F)C1CCCC1	-15	1.2	0.5	-0.9	-4	-1.8	14	0
CCCn1nnnc1COc1ccc(C(N)=O)cc1	-7	-0.6	4.3	-4.1	1	0.0	0	-4
CCCCOc1cccc(C(=O)N(Cc2ccccc2)C2CCS(=O)(=O)C2)c1 (stereo not given)	-4	4.4	2.5	-0.2	8	1.9	-1	3
O=C(Nc1ccc(Cl)cc1)c1cccc(OC(=S)N2CCOCC2)c1	7	u	0.5	0.2	-5	8.6	33	-3
COC(=O)N/N=C/c1ccc(OC(=O)c2ccco2)c(OC)c1	9	6.8	x	-0.1	19	-2.0	-13	-4
COc1ccc(CCC(=O)NC2CCCCC2)cc1	2	8.8	2.8	-0.8	3	4.7	-5	0
COc1ccc(OC)c(NC(=O)c2nnn(Cc3ccc(Br)cc3F)c2N)c1	-1	2.3	-5.9	0.3	25	-3.0	-32	3
COc1ccc(Oc2nc(Oc3ccc(OC)cc3)nc(Oc3ccc(OC)cc3)n2)cc1	-4	-0.4	2.9	2.0	-28	4.9	3	x
COc1ccc(-n2nc(C(=O)NCc3ccco3)c3c4ccccc4n(C)c3c2=O)cc1Cl	2	2.2	-54	-0.6	13	-1.4	-3	5
Cc1nc2ccccc2c(=O)n1NC(=O)C1CC1	0	-3.4	2.9	0.9	-10	-2.8	-11	-2
C#CCOCCOCCOCCNc1nc(N2CCN(C(=O)[C@H](CC(N)=O)n3cc([C@@H](N)C(C)C)nn3)CC2)nc(N2CCN(C(=O)[C@H](CC(N)=O)n3cc([C@@H](N)C(C)C)nn3)CC2)n1	-2	x	2.4	0.4	x	0.9	x	2
CC(C)[C@@H](C(=O)NCC1CCC(C(=O)O)CC1)n1nnc2ccccc2c1=O (stereo not given in full)	5	-4.5	0.5	-0.5	-8	3.1	-6	-7
COc1cc(C(=O)Nc2ccccc2N2CCCCC2)cc(OC)c1OC	15	-0.5	1.7	-0.6	21	-4.4	5	6
Cc1cc(-c2csc(NC(=O)c3cccc(S(=O)(=O)N(C)C)c3)n2)c(C)n1-c1ccccc1	2	-0.8	-0.9	-0.2	0	-2.7	1	2
CCc1cccc(CC)c1NC(=S)NCCc1c(C)[nH]c2ccccc12	18	2.0	5.5	0.1	39	-0.6	-5	-1
C/C=C/c1ccc(OCCn2cncn2)c(OC)c1	-1	x	2.0	-0.7	x	7.1	x	-3
Cc1c(NC(=O)c2cccnc2Cl)c(=O)n(-c2ccccc2)n1C	-8	6.1	2.2	1.2	4	0.7	3	1
CCOc1ccccc1C(=O)Nc1cccc(-c2nnc(-c3ccccc3)o2)c1	-3	-0.7	-5.6	0.3	-8	3.3	5	2
CCOc1cc(N2CCOCC2)c(OCC)cc1NC(=O)CSc1cccc[n+]1[O-]	4	1.0	0.4	-0.1	-16	-3.2	x	-9
O=C(Cn1cnc2ccccc2c1=O)c1ccc(Br)cc1	-7	3.0	6.6	0.3	3	-1.6	5	-2
O=C(COC(=O)C1CCCC1)Nc1cccc(Cl)c1Cl	3	x	0.7	0.6	x	-2.3	x	-2
CCn1c(SCC(=O)Nc2nc3ccc(C)cc3s2)nc2c(c1=O)SC(C)C2 (stereo not given)	-8	-2.6	4.5	-0.7	18	6.8	16	28
CCOc1ccc(NC(=O)C(CC)NC(=O)c2ccccc2CO)cc1 (stereo not given)	-10	-3.3	-1.0	-0.2	-5	-1.0	-3	1
COc1cc(CNC(C)c2ccccc2)cc(Br)c1OCc1ccccc1 (stereo not given)	15	-1.1	2.4	-0.1	51	2.1	10	18
O=C(COc1ccc(Br)cc1)N1CCN(S(=O)(=O)/C=C/c2ccccc2)CC1	-7	-2.0	4.6	-0.2	-23	2.1	-5	x
Cn1ncc(Br)c1C(=O)Nc1ccc(Cl)cn1	8	2.8	-2.0	-0.1	-7	-11	0	1
N#CCCC12CCCCC1=Nc1ccccc12 (stereo not given)	8	u	-2.2	-0.7	-6	0.5	51	4
CCOCCn1c(CN2CCN(c3ccccc3)CC2)nc2c1c(=O)n(C)c(=O)n2C	-4	-2.0	1.9	-0.3	13	-0.9	55	-6
COCCNC(=O)COC(=O)/C=C/c1cnc2ccccc2n1	-10	3.5	2.1	0.0	-18	-4.4	0	-6
Cc1cc(C)cc(NC(=O)NN2C(C)CCCC2C)c1 (stereo not given)	3	-2.8	0.2	0.2	2	2.5	-23	2
COc1cccc(NC(=O)Nc2cc(C)ccc2F)c1	1	-1.6	3.6	-6.3	5	-2.3	-25	1
COC(=O)C1=C[C@@H](C(=O)OC)[C@@H]2C3=C(C(=O)[C@@]2(C)NC(=O)c2ccccc2)[C@H](C)C(C(=O)OC)=C(C(=O)OC)[C@@H]3C1	-4	0.7	4.3	-1.0	-5	-0.5	5	-3
CCCOC(=O)c1ccc(NC(=O)CC(C)(C)C)cc1	0	6.8	4.0	-0.7	14	-5.0	-5	-2
COCCNC(=S)N1CCN(Cc2ccc3c(c2)OCO3)CC1	-4	1.8	2.3	0.0	-5	-5.5	-48	-3
COc1cccc(/C=C2/C(=O)NN(c3ccc(F)cc3)C2=O)c1	8	u	0.7	-0.4	-2	-4.0	-10	-2
O=C(c1sc2cccc(Cl)c2c1Cl)N1CCN(CCc2ccccn2)CC1	-4	-3.7	2.5	0.5	17	-3.7	-3	-3
The listing continues:
SMILES	Beta2AR agonist	RanGTP-Imp inh	UCH37 DUB inh	Bfl-1 A1 inh	T cruzi repl	LANA-H2B inh	Calb FLC	Beta cell apopt
O=S(=O)(NCC1CCCO1)c1cccc(C(F)(F)F)c1 (stereo not given)	-5	-0.3	4.0	-0.1	5	-2.9	-38	-3
CC(=O)c1c(C)n(C)c2ccc(OC(=O)c3ccco3)cc12	11	-2.4	2.8	-0.7	6	0.1	8	0
CC(NS(=O)(=O)c1cc2c3c(c1)CCC(=O)N3CCC2)c1ccccc1 (stereo not given)	-1	1.0	1.4	1.1	-9	2.5	1	0
CC(C)=CCc1c(O)ccc(C(=O)Cc2ccccc2)c1O	1	5.3	x	0.0	-4	2.5	-25	8
Cn1cc(S(=O)(=O)NC(c2ccccc2)c2ccccc2)c(=O)n(C)c1=O	-3	-5.4	-1.7	1.8	-5	3.0	0	-2
Fc1ccccc1Cn1c2[n+](c3ccc(C(F)(F)F)cc31)CCCCC2	-1	5.1	1.7	-0.8	17	x	7	-2
COc1ccc(NC(=O)c2cc(-c3ccc(C)cc3O)n[nH]2)c(OC)c1	0	0.3	3.7	1.6	-5	-0.4	32	4
CN(C)c1ccc(N=Nc2ccccc2C(=O)OCC(=O)N2CCCCCC2)cc1	-3	-4.1	5.8	-1.7	12	0.2	2	6
CCOc1ccc(S(=O)(=O)N2CCN(c3ccc(C)cc3C)CC2)cc1	2	8.0	2.1	0.0	21	-7.6	3	-7
O=C(Cn1nc(Cl)nc1Cl)c1ccccc1	-7	-3.0	x	0.5	-5	4.2	-2	-3
NS(=O)(=O)c1cc2c(cc1Cl)NC(CC1CCCC1)NS2(=O)=O (stereo not given)	2	1.2	4.7	2.4	5	-1.0	-6	-4
COc1cc(NC(=S)Nc2ccccn2)cc(OC)c1	-16	2.8	-1.8	-0.2	13	0.8	5	1
COCCNc1nc(-c2cc3ccccc3o2)cs1	10	6.3	-0.4	-1.7	-15	2.6	-3	1
Cc1ccc(C(=O)NCCOc2ccc(Cl)cc2)cc1	-5	5.7	1.9	0.9	6	-7.0	-4	-6
NS(=O)(=O)c1ccc(CCNC(=O)c2ccc(NS(=O)(=O)c3ccc4[nH]c(=O)[nH]c4c3)cc2)cc1	1	-1.6	x	0.3	-15	1.9	7	-4
CCCCC(=O)NCCc1cc2c(OC)ccc(OC)c2[nH]c1=O	-2	1.6	-3.2	0.3	-9	-0.3	4	-5
COc1ccc2cc(S(=O)(=O)N3CCCC3)ccc2c1	2	u	3.0	0.5	3	3.2	-4	x
Cc1ccc(Nc2nc(N)nc(CSC(=S)N3CCN(c4ccccc4)CC3)n2)cc1	-2	-0.7	1.3	0.5	27	x	26	-3
C[C@H](CO)N1C[C@H](C)[C@@H](CN(C)C(=O)NC2CCCCC2)Oc2ccc(NC(=O)Cn3cnnn3)cc2C1=O	4	x	1.5	-0.2	x	11	x	-11
CCOc1ccc(NC(=O)N2CCN(C(=O)c3ccco3)CC2)cc1	-5	1.7	0.8	0.6	3	-4.9	1	-4
O=C(CCN1C(=O)c2ccccc2C1=O)Nc1ccccc1C(F)(F)F	3	u	-0.2	0.0	-4	-13	2	-8
CCOC(=O)Cc1csc(NC(=S)NC(=O)C(C)(C)C)n1	-2	-0.1	1.8	0.2	17	6.9	-9	5
Cn1c(SCC(=O)NCc2ccc(F)cc2)ncc(C(=O)Nc2ccccc2)c1=O	-6	u	-3.9	-6.4	22	4.7	-5	-18

Quoted from the listing:
COCCNc1nc(-c2cc3ccccc3o2)cs1 in Beta cell apopt reads 1
CCCCC(=O)NCCc1cc2c(OC)ccc(OC)c2[nH]c1=O in UCH37 DUB inh reads -3.2
